Screens deposited in PubChem BioAssay by Broad Institute.
Vaccinia inh – blocks a specific stage of Vaccinia orthopoxvirus infection, primary screen, cell-based, single point; Vaccinia-infected cells, mCherry/Venus stage reporter fluorescence; active compounds read low; some inactives read as strong as hits; activity change (mCherry), % (no concentration beside the values); 89,000 tested, 0.01% active; AID 1053133, 2014;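 active = mCherry past -33% and 40 or more points under the early reporter, replicates agreeing; inconclusive = past -33% without that gap or agreement; tested in A549 cells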;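 also: scaled between vehicle wells and reference inhibitor wells; 23 nL library stock went into each well; one replicate is shown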
Vaccinia inh Venus – also measured in Vaccinia inh; calls as there; activity change (Venus), %; measured here: Venus reporter, other viral stage;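 negative = less Venus signal; first of two replicates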
The depositor's hits bear a star; ? = inconclusive; · = no result given; & = joins results of further samples.

SMILES	Vaccinia inh	Vaccinia inh Venus
Cc1noc(C)c1S(=O)(=O)Nc1ccc2c(c1)CC(=O)N([C@@H](C)CO)C[C@@H](C)[C@H](CN(C)Cc1ccc(C(F)(F)F)cc1)O2	?	·
COCC(=O)N1[C@H](C#N)[C@H](c2ccccc2C2=CCCCC2)[C@H]1CO	5.1	2.6
C[C@@H]1CCCCO[C@H](CN(C)Cc2ccc(C(F)(F)F)cc2)[C@@H](C)CN([C@H](C)CO)C(=O)c2cc(NC(=O)CCC(F)(F)F)ccc2O1	-13.7	-6.8
C[C@@H]1CN([C@@H](C)CO)C(=O)CCCn2nncc2CO[C@@H]1CN(C)C(=O)c1ccccc1	14.7&1.5	19.8&11.3
COc1ccc(NC(=O)N(C)C[C@H]2Oc3ncc(-c4ccc(C#N)cc4)cc3C(=O)N([C@H](C)CO)C[C@@H]2C)cc1	2.9	1.0
CCCNC(=O)N1CC2(CN(C(=O)Nc3cccc(F)c3)C2)c2c(n(C)c3cc(OC)ccc23)[C@H]1CO	0.3	-7.4
CCCNC(=O)C[C@H]1CC[C@H]2[C@@H](COc3ccc(NC(=O)CCC)cc3C(=O)N2C)O1	9.2	6.6
C[C@@H]1CCCCO[C@H](CN(C)Cc2ccccc2)[C@@H](C)CN([C@@H](C)CO)C(=O)c2cc(NC(=O)Nc3ccc(C(F)(F)F)cc3)ccc2O1	?	·
CCC(=O)N1[C@H](CO)[C@@H]2c3ccccc3N(C(=O)c3ccncc3)C[C@@H]21	-7.2	7.7
Cc1cc(C(=O)Nc2cccc3c2O[C@H](CN(C)CC2CC2)[C@@H](C)CN([C@H](C)CO)C3=O)n(C)n1	14.5	23.4
COc1ccccc1NC(=O)N(C)C[C@@H]1Oc2ncc(C#CCN(C)C)cc2C(=O)N([C@H](C)CO)C[C@H]1C	1.4	-4.0
O=C(Cc1ccccc1)N1CC(=O)N2[C@H](CO)[C@@H](c3ccc(Br)cc3)[C@@H]2C1	1.9	7.4
COc1ccc(S(=O)(=O)N(C)C[C@H]2OCc3ccccc3-c3c(n(C)c4ccccc34)C(=O)N([C@@H](C)CO)C[C@@H]2C)cc1	?	·
CN1C(=O)c2cc(NC(=O)C3CCOCC3)ccc2OC[C@H]2O[C@H](CC(=O)NC3CCCC3)CC[C@H]21	7.3	7.8
COc1cccc(S(=O)(=O)N(C)C[C@@H]2Oc3ncc(-c4cccc(C(=O)N(C)C)c4)cc3C(=O)N([C@H](C)CO)C[C@H]2C)c1	6.7	0.6

A portion from the list above, as a working copy:
SMILES	Vaccinia inh	Vaccinia inh Venus
COCC(=O)N1[C@H](C#N)[C@H](c2ccccc2C2=CCCCC2)[C@H]1CO	5.1	2.6
C[C@@H]1CCCCO[C@H](CN(C)Cc2ccc(C(F)(F)F)cc2)[C@@H](C)CN([C@H](C)CO)C(=O)c2cc(NC(=O)CCC(F)(F)F)ccc2O1	-13.7	-6.8
C[C@@H]1CN([C@@H](C)CO)C(=O)CCCn2nncc2CO[C@@H]1CN(C)C(=O)c1ccccc1	14.7&1.5	19.8&11.3
COc1ccc(NC(=O)N(C)C[C@H]2Oc3ncc(-c4ccc(C#N)cc4)cc3C(=O)N([C@H](C)CO)C[C@@H]2C)cc1	2.9	1.0
CCCNC(=O)N1CC2(CN(C(=O)Nc3cccc(F)c3)C2)c2c(n(C)c3cc(OC)ccc23)[C@H]1CO	0.3	-7.4
CCCNC(=O)C[C@H]1CC[C@H]2[C@@H](COc3ccc(NC(=O)CCC)cc3C(=O)N2C)O1	9.2	6.6
C[C@@H]1CCCCO[C@H](CN(C)Cc2ccccc2)[C@@H](C)CN([C@@H](C)CO)C(=O)c2cc(NC(=O)Nc3ccc(C(F)(F)F)cc3)ccc2O1	?	·
CCC(=O)N1[C@H](CO)[C@@H]2c3ccccc3N(C(=O)c3ccncc3)C[C@@H]21	-7.2	7.7
Cc1cc(C(=O)Nc2cccc3c2O[C@H](CN(C)CC2CC2)[C@@H](C)CN([C@H](C)CO)C3=O)n(C)n1	14.5	23.4
COc1ccccc1NC(=O)N(C)C[C@@H]1Oc2ncc(C#CCN(C)C)cc2C(=O)N([C@H](C)CO)C[C@H]1C	1.4	-4.0

Going on with the list.
SMILES	Vaccinia inh	Vaccinia inh Venus
CCN1[C@@H]2c3cccc(=O)n3C[C@H]1[C@H](CO)[C@H]2C(=O)NC1Cc2ccccc2C1	5.4	12.8
COc1ccc(C#Cc2ccc3c(c2)[C@H]2[C@H](CCN2C(=O)C2CCC2)[C@@H](CO)N3)cc1	1.4	4.8
COc1ccc(NC(=O)N(C)C[C@H]2OCc3cnnn3CCCC(=O)N([C@@H](C)CO)C[C@@H]2C)c(OC)c1	13.5	11.5
C[C@@H]1CN([C@@H](C)CO)C(=O)c2cc(C#CCC3CCCC3)cnc2O[C@H]1CN(C)C(=O)CC1CC1	-5.5	-4.2
CCCNC(=O)C[C@@H]1CC[C@@H]2[C@@H](COc3ccc(NC(=O)c4ccccc4)cc3C(=O)N2C)O1	7.4	11.4
CC(C)NC(=O)Nc1ccc2c(c1)C(=O)N([C@@H](C)CO)C[C@H](C)[C@@H](CN(C)C(=O)c1ccccc1)OCCCC[C@@H](C)O2	8.5	3.4
COC(=O)[C@H]1[C@H](CO)[C@H]2Cn3c(ccc(-c4ccccc4F)c3=O)[C@@H]1N2Cc1cccnc1	8.5	8.2
N#C[C@H]1[C@H](c2ccc(C#Cc3cccc(F)c3)cc2)[C@H](CO)N1C(=O)C1CCCC1	-33.7	-22.4
CO[C@H](CN(C)C(=O)c1cnccn1)[C@@H](C)CN([C@H](C)CO)S(=O)(=O)c1ccc(C)cc1	9.3	5.6
C[C@H]1CN([C@@H](C)CO)C(=O)c2cc(NS(=O)(=O)c3ccc(F)cc3)ccc2O[C@H]1CN(C)Cc1ccc(Cl)c(Cl)c1	0.7	-3.4
C[C@@H]1CN([C@@H](C)CO)C(=O)Cc2cc(NC(=O)Cc3cn(C)c4ccccc34)ccc2O[C@H]1CN(C)C(=O)Nc1ccc(C(F)(F)F)cc1	-16.7	-3.9
C[C@@H]1CCCCO[C@@H](CN(C)Cc2ccc(C(F)(F)F)cc2)[C@H](C)CN([C@@H](C)CO)C(=O)c2cc(NS(=O)(=O)c3cn(C)cn3)ccc2O1	3.8	-1.0
COc1ccc(NC(=O)N[C@H]2CC[C@H](CC(=O)NC3CCC3)O[C@H]2CO)cc1	-1.2	-3.9
C[C@@H]1CN([C@H](C)CO)C(=O)c2cccc(NS(=O)(=O)c3cccs3)c2O[C@@H]1CN(C)S(C)(=O)=O	18.4	6.9
CN1[C@@H]2c3ccc(-c4ccc(F)cc4)c(=O)n3C[C@H]1[C@H](CO)[C@H]2C(=O)N1CCCCC1	21.1	9.7
CNC[C@@H]1Oc2ncc(-c3ccccc3)cc2C(=O)N([C@H](C)CO)C[C@@H]1C	13.9	4.5
COc1ccccc1NC(=O)N(C)C[C@@H]1OCc2cn(nn2)CCCC(=O)N([C@H](C)CO)C[C@@H]1C	0.6	-0.5
COc1ccc2c3c([nH]c2c1)[C@@H](CO)N(Cc1ccc(Cl)cc1)CC31CN(S(C)(=O)=O)C1	4.9	-0.1
C[C@H]1CN([C@@H](C)CO)C(=O)c2cccc(NC(=O)c3ccc(-c4nccs4)cc3)c2O[C@H]1CN(C)Cc1ccc(Cl)c(Cl)c1	?	·
CO[C@@H]1CN(C)C(=O)c2cc(NS(=O)(=O)c3ccccc3)ccc2OC[C@H](C)N(C(=O)NC(C)C)C[C@H]1C	14.4	5.4
C[C@H](CO)N1C[C@H](C)[C@@H](CN(C)S(=O)(=O)c2ccc(Cl)cc2)Oc2ccc(NC(=O)CCC(F)(F)F)cc2CC1=O	4.0	7.3
C[C@H]1CN([C@@H](C)CO)C(=O)c2cc(C#CC(C)(C)O)cnc2O[C@H]1CN(C)C(=O)c1ccccc1F	-7.2	-5.2
CO[C@H]1CN(C)C(=O)c2cc(NC(C)=O)ccc2OC[C@H](C)N(C(=O)C2CCOCC2)C[C@H]1C	18.7	12.3
O=C(C[C@@H]1CC[C@H]2[C@@H](COC[C@@H](O)CN2S(=O)(=O)c2ccccc2)O1)Nc1ccc(-c2ccccc2)cc1	?	·
CC(C)C#Cc1cnc2c(c1)C(=O)N([C@H](C)CO)C[C@H](C)[C@H](CN(C)Cc1ccc3c(c1)OCO3)O2	-6.7	-8.0
COc1ccccc1S(=O)(=O)Nc1ccc2c(c1)OC[C@H](C)NC[C@H](C)[C@H](OC)CN(C)C2=O	11.7	5.9
C[C@H](CO)N1C[C@H](C)[C@@H](CN(C)C(=O)Nc2ccc(C(F)(F)F)cc2)Oc2ccc(NC(=O)Nc3ccc4c(c3)OCO4)cc2C1=O	29.5	16.3
COCC(=O)N1[C@@H]2c3ccc(C4=CCCCC4)c(=O)n3C[C@@H]2[C@@H](CO)[C@@H]1C(=O)N1CCN(C)CC1	21.8	-1.3
C[C@H]1CN([C@@H](C)CO)S(=O)(=O)c2ccc(/C=C/c3ccccc3)cc2O[C@H]1CN(C)C(=O)Nc1cccc(F)c1	?	·
C[C@H]1CN([C@@H](C)CO)S(=O)(=O)c2ccc(-c3ccncc3)cc2O[C@H]1CN(C)C(=O)c1ccc2c(c1)OCO2	18.1	12.9
C[C@H]1CN([C@@H](C)CO)C(=O)c2cc(Br)cnc2O[C@H]1CN(C)C(=O)C1CCOCC1	21.9	10.1
N#C[C@H]1[C@@H](c2ccc(C#CCC3CCCC3)cc2)[C@H](CO)N1C(=O)c1ccccn1	-32.0	-27.3
COc1ccccc1-c1cn(CC[C@H]2CC[C@@H](NC(=O)c3ccccc3F)[C@@H](CO)O2)nn1	5.1	9.0
CN1C(=O)c2cc(NC(=O)c3ccc(F)cc3)ccc2OC[C@H]2O[C@H](CC(=O)NC3CCC3)CC[C@@H]21	-1.8	-3.0
CC(C)NC(=O)Nc1ccc2c(c1)C(=O)N([C@@H](C)CO)C[C@@H](C)[C@@H](CN(C)S(=O)(=O)c1ccc(F)cc1)OCCCC[C@@H](C)O2	-6.9	0.5
COc1cccc(C(=O)Nc2ccc3c(c2)OC[C@H](C)NC[C@H](C)[C@@H](OC)CN(C)C3=O)c1	-3.3	5.9
C[C@@H]1CCCCO[C@@H](CN(C)C(=O)Nc2cccc3ccccc23)[C@H](C)CN([C@H](C)CO)C(=O)c2cc(NC(=O)c3ccncc3)ccc2O1	-23.9	-12.4
C[C@@H](O)C#Cc1ccc([C@H]2[C@@H](CO)N3CCCCN(C(=O)c4ccc(F)cc4)C[C@H]23)cc1	30.5	3.7
O=C(Nc1ccc2c(c1)[C@H]1C[C@H](CC(=O)N3CCc4ccccc4C3)O[C@H](CO)[C@H]1O2)C1CCOCC1	-6.5	3.8
O=C(C[C@@H]1CC[C@@H](NC(=O)Nc2ccccc2F)[C@@H](CO)O1)NCc1ccc(F)cc1	0.6	-7.1
CC(=O)N1[C@@H](CO)[C@@H](c2ccccc2)C12CN(Cc1ccccc1)C2	5.1	3.9
CNC(=O)C[C@H]1CC[C@@H]2[C@H](COC[C@@H](O)CN2C(=O)Nc2cccc(OC)c2)O1	15.6	7.1
CO[C@H]1CN(C)C(=O)c2cc(NC(=O)c3cnccn3)ccc2OC[C@@H](C)N(C(C)=O)C[C@H]1C	6.7	6.5
CCCC(=O)Nc1ccc2c(c1)C(=O)N(C)[C@H]1CC[C@@H](CC(=O)NCc3cccc(F)c3)O[C@H]1CO2	-6.5	-1.9
CC(C)C#Cc1ccc2c(c1)O[C@@H](CN(C)Cc1ccncc1)[C@@H](C)CN([C@H](C)CO)S2(=O)=O	-16.5	-11.0
COC(=O)N(C)C[C@@H]1OCc2cnnn2CCCC(=O)N([C@H](C)CO)C[C@H]1C	8.6	11.9
C[C@H](CO)N1C[C@H](C)[C@H](CN(C)C(=O)NC2CCCCC2)Oc2ccc(NC(=O)Cn3cnnn3)cc2CC1=O	22.9	14.2
COC(=O)N(C)C[C@@H]1OCc2cn(nn2)CCCC(=O)N([C@@H](C)CO)C[C@H]1C	-12.8&1.0	-7.6&-0.4
CC(C)NC(=O)N(C)C[C@@H]1Oc2ccc(NC(=O)Nc3ccc4c(c3)OCO4)cc2CC(=O)N([C@@H](C)CO)C[C@H]1C	5.4	-4.6
C[C@@H]1CN([C@@H](C)CO)C(=O)c2cc(-c3ccncc3)cnc2O[C@@H]1CN(C)C(=O)C1CCCCC1	8.8	0.5
C[C@@H]1CN([C@@H](C)CO)C(=O)c2cccc(NC(=O)C3CCOCC3)c2O[C@@H]1CN(C)S(=O)(=O)c1ccc(Cl)cc1	6.3	1.1
O=C(NC1Cc2ccccc2C1)[C@H]1N[C@H]2c3ccc(C4=CCCC4)c(=O)n3C[C@H]2[C@@H]1CO	20.2	3.7
C[C@H]1CN([C@@H](C)CO)C(=O)c2cc(C#CC3(O)CCCC3)cnc2O[C@@H]1CN(C)S(=O)(=O)c1ccc(F)cc1	-1.5	2.4
COc1ccc(-c2ccc3c(c2)O[C@@H](CN(C)Cc2ccccc2C(=O)O)[C@H](C)CN([C@@H](C)CO)S3(=O)=O)cc1	12.7	1.5
CN(C)C(=O)[C@H]1[C@H](CO)[C@H]2Cn3c(cccc3=O)[C@@H]1N2CC1CCCC1	11.9	5.9
C[C@@H]1CN([C@H](C)CO)S(=O)(=O)c2ccc(-c3ccc(C#N)cc3)cc2O[C@@H]1CN(C)CC1CC1	-9.9	-11.9
O=C1CNC[C@H]2[C@@H](c3ccc(C#CC4CCCC4)cc3)[C@H](CO)N12	-2.3	-1.2
CN(C)CCCNC(=O)C[C@@H]1C=C[C@@H](NC(=O)c2ccccc2F)[C@@H](CO)O1	1.0	1.7
O=C(C[C@@H]1CC[C@@H]2[C@H](COC[C@H](O)CN2C(=O)Nc2ccc3c(c2)OCO3)O1)N1CCN(c2ccccc2)CC1	-24.5	-18.1
Cc1cc(C(=O)Nc2cccc3c2O[C@@H](CN(C)C(=O)NC(C)C)[C@@H](C)CN([C@@H](C)CO)C3=O)n(C)n1	20.2	14.3
COc1ccc(S(=O)(=O)N(C)C[C@H]2Oc3ccc(NS(=O)(=O)c4c(C)noc4C)cc3CC(=O)N([C@@H](C)CO)C[C@@H]2C)cc1	13.5	1.4

These rows are one share of the data, so the mix of outcomes need not match the whole.
